High-throughput results deposited in PubChem by several laboratories.
HNF4A DNA FP: change in binding of human HNF4 alpha to DNA; 0.3% of 360,000 active; activity change, % at 10 µM; HNF4a-FITC DNA binding, fluorescence polarization, 1 h; P41235; in the data active means activity change above about 30%, passing the limit was not always enough;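 further: controls were the assay level and a saturating level of protein; the project sought stronger binding though the title names inhibitors; some compounds called inactive have numbers as strong as hits; positive values seem to mean higher polarization but the record does not say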
Target sequence (P41235 whole entry, looked up): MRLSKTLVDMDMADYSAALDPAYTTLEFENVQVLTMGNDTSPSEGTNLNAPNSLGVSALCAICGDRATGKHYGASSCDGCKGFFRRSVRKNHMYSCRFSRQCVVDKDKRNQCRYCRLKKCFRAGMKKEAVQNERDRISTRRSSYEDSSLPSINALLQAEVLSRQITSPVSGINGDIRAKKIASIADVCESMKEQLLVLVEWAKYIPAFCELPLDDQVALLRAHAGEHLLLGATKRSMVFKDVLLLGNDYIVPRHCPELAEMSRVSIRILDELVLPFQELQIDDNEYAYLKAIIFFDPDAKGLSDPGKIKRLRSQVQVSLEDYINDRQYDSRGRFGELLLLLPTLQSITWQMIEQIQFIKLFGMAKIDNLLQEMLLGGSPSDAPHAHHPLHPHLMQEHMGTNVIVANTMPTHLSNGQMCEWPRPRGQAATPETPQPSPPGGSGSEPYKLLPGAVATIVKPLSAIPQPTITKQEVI
Calb FLC: affects C. albicans growth with fluconazole; C. albicans CaCi-2 (fluconazole-resistant clinical isolate) + fluconazole, Alamar Blue growth, 48 h; growth inhibition, % (concentration not given with the values); 0.57% of 300,000 active; AID 1979;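 active means most replicates above 75%; inconclusive means exactly half above 75%; inactive means most below 75%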;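 further: all wells also contain fluconazole at 8 µg/ml as a sub-toxic cotreatment; 0% = median of DMSO wells and 100% = median of geldanamycin control wells; wells of about 8 µL received 7.5 nL stock; the first replicate is given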
Vif A3G: HIV-1 Vif–A3G interaction blockers – biochemical, TR-FRET, GST-Vif 1-94, biotin-A3G peptide, dose response retest, primary screen (AID 1117319); TR-FRET GST-Vif / biotin-A3G peptide binding; higher % means a stronger effect; test concentration not given here; strong numbers were not always called active; inhibition, %; hits with a dose series show IC50 in µM; 0.57% of 260,000 active;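 active means above the screen mean plus three standard deviations and confirmed in dose response; inconclusive means results disagree or hit not tested in dose response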;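 further: Vif residues 1-94 fused to GST binding biotinylated APOBEC3G peptide 110-148; 0% = full assay without inhibitor and 100% = GST in place of GST-Vif; retest series ran down from 100 µM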
RanGTP-Imp inh: inhibitors of RanGTP-importin-beta interaction, primary screen, biochemical, FRET, CFP-Ran, YFP-importin-beta, homogeneous; inhibition, % (concentration not given with the values); cell-free CFP-Ran/YFP-importin-beta FRET ratio; 1.1% of 300,000 active;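 active means most replicates above 15%; inconclusive means exactly half above 15%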;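 further: 0% = DMSO wells and 100% = Ran loaded with GDP instead of GTP; wells of about 40 µL received 100 nL stock; the first replicate is given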
LANA-H2A inh: blocks KSHV LANA binding to histone H2A/H2B. Q9QR71. cell-free LANA-H2A/H2B peptide, fluorescence polarization. inhibition, % (test concentration not listed). 0.6% of 320,000 active. AID 2629; in the data active means inhibition mostly above about 10%, no sharp cut-off; inactive means mostly below about 6.7%;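 further: stock transfer was 7.5 nL into about 10 µL; 0% = median of vehicle wells and 100% = median of positive control wells; one replicate is shown; the record names a cut of 25% in any replicate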
ALR H2O2 inh: blocks human ALR sulfhydryl oxidase activity | P55789 | purified ALR, DTT oxidation, H2O2 HRP-luminol luminescence | inhibition, % (no concentration beside the values) | 3.8% of 290,000 active;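 active means mean and each replicate at 75% or more; inconclusive means only one of the two met; inactive means neither met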;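 further: stock transfer was 7.5 nL into about 7.5 µL; 0% = neutral wells and 100% = wells with inactivated enzyme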
Target sequence (P55789 whole entry, looked up): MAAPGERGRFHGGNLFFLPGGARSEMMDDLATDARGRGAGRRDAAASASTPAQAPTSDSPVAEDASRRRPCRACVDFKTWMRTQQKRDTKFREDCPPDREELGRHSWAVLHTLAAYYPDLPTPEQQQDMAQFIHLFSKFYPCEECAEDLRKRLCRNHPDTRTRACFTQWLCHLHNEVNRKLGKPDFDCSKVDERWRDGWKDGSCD
Beta2AR agonist: agonists of human beta-2 adrenergic receptor inducing internalization. response, % (no concentration beside the values). P07550. 0.43% of 340,000 active. Am2.2-beta2AR cells, FAP receptor internalization, flow cytometry; reference of the scale not given here;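 active means response above a set limit, near 3 SD of response in nonfluorescent compounds, cut at about 42% in these data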;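 further: stock transfer was 100 nL into about 11 µL; a reference agonist was the positive control; negative values mostly stem from fluorescent compounds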
Target sequence (P07550 whole entry, looked up): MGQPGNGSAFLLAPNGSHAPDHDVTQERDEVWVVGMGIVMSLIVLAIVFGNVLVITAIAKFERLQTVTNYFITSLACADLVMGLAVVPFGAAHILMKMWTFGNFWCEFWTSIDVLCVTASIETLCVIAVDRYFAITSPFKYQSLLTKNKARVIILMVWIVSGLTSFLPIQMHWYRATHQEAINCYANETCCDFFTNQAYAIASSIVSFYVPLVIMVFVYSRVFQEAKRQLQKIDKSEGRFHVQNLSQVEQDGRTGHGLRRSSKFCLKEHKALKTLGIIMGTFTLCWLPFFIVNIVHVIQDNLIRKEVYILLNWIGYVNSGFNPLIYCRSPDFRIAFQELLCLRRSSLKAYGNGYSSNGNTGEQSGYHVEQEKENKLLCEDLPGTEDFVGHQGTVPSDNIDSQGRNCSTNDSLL
The depositor's hits bear a star. An unsorted share of the library. Share with any hit: about 6.3%.

`Cc1ccc(C)n1-c1ccncc1` gave HNF4A DNA FP -1.9, Calb FLC -5, Vif A3G 7%, RanGTP-Imp inh -2.2, LANA-H2A inh -1.4, ALR H2O2 inh -7 and Beta2AR agonist -1.
CCC(C)Nc1nc(-c2cccc(OC)c2O)nc2ccccc12 (configuration not stated) was read as HNF4A DNA FP -3.3, Calb FLC -5, Vif A3G -2%, RanGTP-Imp inh -0.5, LANA-H2A inh -2.6, ALR H2O2 inh 2 and Beta2AR agonist 4.
For CC12CCC(=O)N1C(C(=O)NCCc1ccccc1)CS2 (configuration not stated) the results were HNF4A DNA FP 2.1, Calb FLC -9, Vif A3G -6%, RanGTP-Imp inh inconclusive, LANA-H2A inh 4.2, ALR H2O2 inh -8 and Beta2AR agonist -8.
For COCCN(C(=O)c1ccccc1)c1nnc(-c2cccnc2)s1 the results were HNF4A DNA FP -4.4, Calb FLC -1, Vif A3G 2%, RanGTP-Imp inh 2.9, LANA-H2A inh -3.4, ALR H2O2 inh -6 and Beta2AR agonist 8.
`Cc1ccc(C)c(CSC2=NCCN2C(=O)c2cccs2)c1` gave HNF4A DNA FP -3.7, Calb FLC -26, Vif A3G -1%, RanGTP-Imp inh inconclusive, LANA-H2A inh 4.6, ALR H2O2 inh -1 and Beta2AR agonist -14.
For COc1cccc(CNC(=O)c2nnn(CC(=O)Nc3ccc(Br)cc3)c2N)c1 the results were HNF4A DNA FP 4.2, Calb FLC 7, Vif A3G -4%, RanGTP-Imp inh -0.2, LANA-H2A inh 4.8, ALR H2O2 inh 1 and Beta2AR agonist -6.
Screening CC(C)CN(CC(C)C)S(=O)(=O)N1CCC(C(=O)NCc2ccccn2)CC1 returned HNF4A DNA FP 1.6, Calb FLC -7, Vif A3G 9%, RanGTP-Imp inh 2.3, LANA-H2A inh -4.4, ALR H2O2 inh 2 and Beta2AR agonist 1.
`O=C(OCc1nnc(-c2ccccc2)o1)C12CC3CC(CC(Br)(C3)C1)C2` gave HNF4A DNA FP 3.1, Calb FLC -32, RanGTP-Imp inh 0.5 and Beta2AR agonist 2.
Screening COC(=O)c1cc(=O)n(Cc2ccc3c(c2)OCO3)c(=Nc2ccc(F)c(Cl)c2)s1 returned HNF4A DNA FP -0.8, Calb FLC -7, Vif A3G 15%, RanGTP-Imp inh inconclusive, LANA-H2A inh 4.8, ALR H2O2 inh -23 and Beta2AR agonist 16.
O=C(O)CCCC(=O)N1CCN(c2cccc(Cl)c2)CC1 was read as HNF4A DNA FP 2.3, Calb FLC 0, Vif A3G inconclusive, RanGTP-Imp inh -0.6, LANA-H2A inh -2.5, ALR H2O2 inh -6 and Beta2AR agonist 1.
For CCN(C(=O)CSc1nnnn1-c1ccccc1)c1c(N)n(Cc2ccccc2)c(=O)[nH]c1=O the results were HNF4A DNA FP 2.0, Calb FLC -18, RanGTP-Imp inh 3.3 and Beta2AR agonist -6.
Screening CC(=O)NC1(C(Cl)(Cl)Cl)Oc2ccccc2O1 returned HNF4A DNA FP -1.1, Calb FLC -8, Vif A3G 3%, RanGTP-Imp inh 5.2, LANA-H2A inh -2.4, ALR H2O2 inh -15 and Beta2AR agonist 2.
`Cc1ccc(CNC(=O)/C=C/c2c(Cl)cccc2Cl)cc1` gave HNF4A DNA FP 4.2, Calb FLC -15, Vif A3G inconclusive, RanGTP-Imp inh -0.5, LANA-H2A inh -3.7, ALR H2O2 inh -3 and Beta2AR agonist 0.
COCC(C)n1c(SCC(=O)NC2CCCCC2C)nc2ccccc2c1=O (configuration not stated) was read as HNF4A DNA FP -1.7, Vif A3G 2%, LANA-H2A inh 2.6, ALR H2O2 inh 18 and Beta2AR agonist 1.
For Cc1cc(C(=O)N2CCC(Cc3ccccc3)CC2)ccc1[N+](=O)[O-] the results were HNF4A DNA FP 1.5, Calb FLC -4, Vif A3G 1%, RanGTP-Imp inh 1.2, LANA-H2A inh -0.1, ALR H2O2 inh 1 and Beta2AR agonist 2.
`O=C(Cn1nc(C(=O)O)c2ccccc2c1=O)Nc1ccc(F)cc1` gave HNF4A DNA FP -2.2, Calb FLC 3, RanGTP-Imp inh 6.3, LANA-H2A inh -2.9, ALR H2O2 inh -5 and Beta2AR agonist 7.
For O=C(c1ccco1)N1CCN(C(=O)C2c3ccccc3Oc3ccccc32)CC1 the results were HNF4A DNA FP -5.1, Calb FLC -3, Vif A3G 8%, RanGTP-Imp inh 1.8, LANA-H2A inh -0.9, ALR H2O2 inh -15 and Beta2AR agonist -5.
For Cc1nc(N2CCN(Cc3ccccc3)CC2)nc2c1C(=O)CC(C)C2 (configuration not stated) the results were HNF4A DNA FP 3.0, Calb FLC -4, Vif A3G inconclusive, RanGTP-Imp inh 5.4, LANA-H2A inh 0.8, ALR H2O2 inh -7 and Beta2AR agonist 35.
`Cc1cc2c([nH]c3ccccc32)c2c1OC(C)(C)C=C2` gave HNF4A DNA FP 2.0, Calb FLC 21, RanGTP-Imp inh 2.2, LANA-H2A inh 6.2, ALR H2O2 inh 6 and Beta2AR agonist 14.
Screening O=C(CCC(=O)Nc1ccc(Br)cc1)N/N=C/c1cc([N+](=O)[O-])ccc1O returned HNF4A DNA FP -3.0, Calb FLC 1, Vif A3G -1%, RanGTP-Imp inh 2.4, LANA-H2A inh -1.0, ALR H2O2 inh -2 and Beta2AR agonist -2.
COc1cccc(N=Nc2c(N)[nH]n3c(=O)c4c(nc23)CCCC4)c1 was read as HNF4A DNA FP 4.2, Calb FLC -2, Vif A3G 15%, RanGTP-Imp inh -1.3, LANA-H2A inh -2.9, ALR H2O2 inh -14 and Beta2AR agonist 2.
`CN(C)C(CNC(=O)C1CCN(C(=O)/C=C/c2ccccc2)CC1)c1ccccc1` (configuration not stated) gave HNF4A DNA FP 3.9, Calb FLC 3, RanGTP-Imp inh 4.4, LANA-H2A inh -3.8, ALR H2O2 inh -5 and Beta2AR agonist -5.
Screening O=C(COC(=O)CNC(=O)c1ccccc1Cl)Nc1ccccc1Cl returned HNF4A DNA FP -3.9, LANA-H2A inh -4.4, ALR H2O2 inh 2 and Beta2AR agonist 2.
For CC(/C=N/NC(=O)c1c(Br)cnn1C)=C\c1ccccc1 the results were HNF4A DNA FP -2.1, Calb FLC 4, RanGTP-Imp inh 1.9, LANA-H2A inh -4.0, ALR H2O2 inh 0 and Beta2AR agonist 0.
Screening Cc1cc(-c2nnc(-c3ccccc3)c(-c3ccccc3)n2)c(C)o1 returned HNF4A DNA FP 5.3, Calb FLC inconclusive, Vif A3G 4%, RanGTP-Imp inh 5.9, LANA-H2A inh 3.9, ALR H2O2 inh 62 and Beta2AR agonist 2.
CCOC(=O)C1=C(C)N(C[C@@H]2CC[C@@H](Cc3ccc(-c4ccccc4)cc3)O2)C(=O)NC1C1CC1 (some centres not stated) was read as HNF4A DNA FP -3.2, Vif A3G -2% and Beta2AR agonist 4.
CCOCCCNS(=O)(=O)c1ccc(NC(=O)Cc2c(F)cccc2Cl)cc1 was read as HNF4A DNA FP 3.3, Calb FLC 6, Vif A3G 2%, RanGTP-Imp inh -0.3, LANA-H2A inh 1.8 and Beta2AR agonist 7.
Cc1ccc(NC(=O)c2sc(C)nc2C)c(C)c1 was read as HNF4A DNA FP 2.0, Calb FLC -2, Vif A3G -7%, RanGTP-Imp inh 2.3, LANA-H2A inh -0.4, ALR H2O2 inh -3 and Beta2AR agonist -141.
Cc1ccc(S(=O)(=O)NCC(=O)NCC2COc3ccccc3O2)cc1C (configuration not stated) was read as HNF4A DNA FP -1.2, Vif A3G -10%, LANA-H2A inh -3.8, ALR H2O2 inh 0 and Beta2AR agonist -7.
CC(C)OCCCNC(=O)C1CCN(S(=O)(=O)c2ccc3nc4c(c(C(=O)O)c3c2)CCCCC4)CC1 was read as HNF4A DNA FP 8.9, Calb FLC -2, RanGTP-Imp inh 1.9, LANA-H2A inh 0.4, ALR H2O2 inh -6 and Beta2AR agonist 1.
For COc1ccc(NC(=O)CSc2nc3[nH]ncc3c(=O)[nH]2)cc1OC the results were HNF4A DNA FP -1.0, Calb FLC -1, Vif A3G 3%, RanGTP-Imp inh -1.0, LANA-H2A inh -0.1, ALR H2O2 inh 96* and Beta2AR agonist -4.
For CCOc1ccccc1NC(=O)C(NCCc1ccc(OC)cc1)c1ccccc1 (configuration not stated) the results were HNF4A DNA FP 2.7, Calb FLC 5, Vif A3G -6%, RanGTP-Imp inh 1.9, LANA-H2A inh -2.6, ALR H2O2 inh -9 and Beta2AR agonist -1.
`Cc1cc(NC2CCCC2)n2ncc(-c3ccccc3)c2n1` gave HNF4A DNA FP 0.3, Calb FLC 1, Vif A3G -3%, RanGTP-Imp inh -1.0, LANA-H2A inh -1.9, ALR H2O2 inh 25 and Beta2AR agonist 22.
For Cc1ccccc1NC(=O)C(=O)NCc1ccccn1 the results were HNF4A DNA FP 4.2, Calb FLC 13, Vif A3G -6%, RanGTP-Imp inh 2.6, LANA-H2A inh 11, ALR H2O2 inh -6 and Beta2AR agonist -6.
O=C(Nc1cccnc1)c1ccc(Cl)c(S(=O)(=O)N2CCCCCC2)c1 was read as HNF4A DNA FP -1.0, Calb FLC 31, Vif A3G 3%, RanGTP-Imp inh -0.5, LANA-H2A inh -0.2, ALR H2O2 inh -2 and Beta2AR agonist 5.
For CCN1CC(CNC(=O)c2ccc3nc(Cc4cccc(Cl)c4)oc3c2)CC1=O (configuration not stated) the results were HNF4A DNA FP -1.7, Calb FLC 3, Vif A3G 4%, RanGTP-Imp inh -0.8, LANA-H2A inh -1.9, ALR H2O2 inh -4 and Beta2AR agonist -2.
CCC(=O)N1c2ccc(S(=O)(=O)CCC(=O)NC3CCCC3)cc2CC1C (configuration not stated) was read as HNF4A DNA FP -4.2, Calb FLC -8, Vif A3G -4%, RanGTP-Imp inh 1.1, LANA-H2A inh 3.3, ALR H2O2 inh -5 and Beta2AR agonist -8.
C/C(=N\NC(=O)C(C)Sc1ccccc1)c1ccc([N+](=O)[O-])cc1 (configuration not stated) was read as HNF4A DNA FP -0.3, Calb FLC -12, Vif A3G -9%, RanGTP-Imp inh -0.9, LANA-H2A inh 3.5, ALR H2O2 inh -17 and Beta2AR agonist 0.
For CCOC(=O)c1cc2[nH]c3ccccc3c2[n+](-c2ccc([N+](=O)[O-])cc2)c1N the results were HNF4A DNA FP -3.0, Calb FLC -21, RanGTP-Imp inh 0.8, LANA-H2A inh 7.0, ALR H2O2 inh -48 and Beta2AR agonist -8.
`NS(=O)(=O)c1ccc(CCNC(=O)CSc2ccccc2)cc1` gave HNF4A DNA FP 0.3, Calb FLC 0, Vif A3G 4%, RanGTP-Imp inh 0.9, LANA-H2A inh -5.2, ALR H2O2 inh -8 and Beta2AR agonist 7.
Screening O=C1C2CCCCC2C(=O)N1c1ccc(NC2CCN(Cc3ccccc3)CC2)c([N+](=O)[O-])c1 (configuration not stated) returned HNF4A DNA FP 2.6, Calb FLC -3, Vif A3G 12%, RanGTP-Imp inh -1.7, LANA-H2A inh 0.4, ALR H2O2 inh -8 and Beta2AR agonist -4.

3 records picked at random from the list so far:
For COc1cccc(CNC(=O)c2nnn(CC(=O)Nc3ccc(Br)cc3)c2N)c1 the results were HNF4A DNA FP 4.2, Calb FLC 7, Vif A3G -4%, RanGTP-Imp inh -0.2, LANA-H2A inh 4.8, ALR H2O2 inh 1 and Beta2AR agonist -6.
For Cc1nc(N2CCN(Cc3ccccc3)CC2)nc2c1C(=O)CC(C)C2 (configuration not stated) the results were HNF4A DNA FP 3.0, Calb FLC -4, Vif A3G inconclusive, RanGTP-Imp inh 5.4, LANA-H2A inh 0.8, ALR H2O2 inh -7 and Beta2AR agonist 35.
For O=C(c1ccco1)N1CCN(C(=O)C2c3ccccc3Oc3ccccc32)CC1 the results were HNF4A DNA FP -5.1, Calb FLC -3, Vif A3G 8%, RanGTP-Imp inh 1.8, LANA-H2A inh -0.9, ALR H2O2 inh -15 and Beta2AR agonist -5.
